GIV-Gai inh: inhibitors of GIV peptide binding to Galpha-i3, primary screen, biochemical, fluorescence polarization, FITC-GIV GBA peptide, rat Galphai3; Guanine nucleotide-binding protein G(i) subunit alpha-3 (Rattus norvegicus), P08753; 90 min; hits give low values; scaled: aluminum fluoride 0%, vehicle 100%; percent of control (FP), % (test concentration not listed); 210,000 tested, 0.42% active;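 active means replicate mean at 85% of control or lower, very high polarization wells dropped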;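 further: wells of about 15 µL received 100 nL stock; the first replicate is given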
Target sequence (P08753 whole entry, looked up): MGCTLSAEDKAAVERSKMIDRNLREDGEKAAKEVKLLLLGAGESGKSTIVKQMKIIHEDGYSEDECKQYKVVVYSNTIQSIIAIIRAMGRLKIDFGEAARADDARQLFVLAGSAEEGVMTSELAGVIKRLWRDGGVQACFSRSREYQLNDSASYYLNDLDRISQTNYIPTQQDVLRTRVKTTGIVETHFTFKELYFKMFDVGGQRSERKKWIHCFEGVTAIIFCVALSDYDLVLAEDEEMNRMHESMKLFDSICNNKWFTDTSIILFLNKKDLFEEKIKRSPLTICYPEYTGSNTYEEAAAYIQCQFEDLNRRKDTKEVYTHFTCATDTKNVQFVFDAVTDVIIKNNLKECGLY
Sa growth 42C: S. aureus growth inhibition at 42 and 30 °C, primary screen, LtaS inhibitor project, RN4220, two temperatures. AID 720641, 2013. 170,000 tested, 0.53% active. relative growth, % (test concentration not listed). OD600, 20 h, 42 °C; hits give low values;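 active means growth at 42 °C up to 50% and 20 or more points under that at 30 °C, or under 10% at both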;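 further: 300 nL library stock went into each well; scaled to the means of positive and negative controls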
HCMV NEC inh: inhibitors of HCMV UL50-UL53 interaction, biochemical, HTRF | inhibition, % (test concentration not listed) | 190,000 tested, 0.15% active | AID 1918969, 2023 | normalized percent inhibition | HCMV UL50-UL53 nuclear egress complex (human cytomegalovirus);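 active means both replicates at 50% or more, plus weaker picks with an unusually low signal ratio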;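 further: stock transfer was 100 nL into about 20 µL; 0% = negative control wells and 100% = wells with untagged competitor protein; inactives centre near -12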
Sa growth 42C second temp: further read-out of Sa growth 42C, marked with its call; relative growth, %; measured here: growth at 30 °C;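 optical density after 20 h as mean of two plates; 100% = untreated growth and lower means inhibition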
Active calls of the source: *; / = not tested or not shown; & = joins results of further samples.

1: Cc1nc2ccc(NC(=O)Nc3ccccc3)cc2o1
2: NC(=O)c1cccc2cccc(Br)c12
3: O=C(CCn1cnc2ccccc21)N/N=C/c1ccccc1
4: CCN(CC)CCCNC(=O)C1CCN(C2=NS(=O)(=O)C(c3ccc(OC)cc3)=C2C)CC1
5: CCc1ccccc1NNC(=O)c1snnc1C
Assay by compound	1	2	3	4	5
GIV-Gai inh	102	100	104	103	104
Sa growth 42C	98	102	105	/	96
Sa growth 42C second temp	94	72	102	/	91
HCMV NEC inh	-12	-25	-3	-78	-3

6: Cc1ccc(N2CCN(C(=O)c3cnn4c(C)c(Cc5ccccc5Cl)c(C)nc34)CC2C)cc1 (stereo not drawn)
7: O=C(NC1=NCCS1)c1ccccc1
8: CCc1nc2ccc(C(=O)NC(C)C)cc2nc1CC
9: Cc1cccc(N2CCN(CC(=O)c3ccc4cc[nH]c4c3)CC2C)c1 (stereo not drawn)
10: CCOC(=O)c1ccc(N2C(=O)c3[nH]nc(-c4ccc(C)cc4)c3C2c2ccc(O)c(OCC)c2)cc1 (stereo not drawn)
Assay by compound	6	7	8	9	10
GIV-Gai inh	112	100	98	104	102
Sa growth 42C	83	105	106	102	99
Sa growth 42C second temp	77	86	86	92	87
HCMV NEC inh	/	-13	-18	-12	-22

11: CC1CCCCN1C(=O)CSc1nnc2c(Cl)cc(Cl)cn12 (stereo not drawn)
12: CCCC(C)NC(=O)c1cnc2sccn2c1=O (stereo not drawn)
13: CC1CCn2c(nc3cc(C(=O)NCCc4ccccc4)ccc32)C1 (stereo not drawn)
14: NNC(=O)C1CCS(=O)(=O)C1 (stereo not drawn)
15: CCn1c(=O)c2cc(C(=O)N3CCC4(CC3)OCCO4)sc2c2ccccc21
Assay by compound	11	12	13	14	15
GIV-Gai inh	/	107	103	/	108
Sa growth 42C	104	/	97	97	109
Sa growth 42C second temp	98	/	86	94	92
HCMV NEC inh	-65	-8	/	-7	-10

16: CCN(CC)S(=O)(=O)c1ccc(N2CC(C(=O)Nc3nc4ccccc4s3)CC2=O)cc1 (stereo not drawn)
17: CC(=O)Nc1ccc(-n2c(C)ccc2C)cc1
18: COc1cc2cc(CNc3ccccc3)c(=O)n(CC(=O)Nc3cc(C)cc(C)c3)c2cc1OC
19: CCOc1ccccc1CNC(=O)c1ccc2c(c1)N(Cc1ccc(C)cc1)CCS2
20: O=C(CSc1ccc(Cl)cc1)NC1CCCc2ccccc21 (stereo not drawn)
Assay by compound	16	17	18	19	20
GIV-Gai inh	/	/	120	102	/
Sa growth 42C	105	113	77	106	107
Sa growth 42C second temp	96	73	90	88	92
HCMV NEC inh	0	2	/	-10	-18

21: CCOC(=O)c1noc2nc(C)n(CC(=O)Nc3ccc(F)c(Cl)c3)c(=O)c12
22: O=C(NCCN1CCOCC1)NC(=O)c1ccccc1
23: Cc1ccc(CNC(=O)CCC(=O)Nc2ccc3nc(N4CCCCC4)cc(C)c3c2)cc1
24: CC1CCCCN1S(=O)(=O)c1ccc2c(c1)C(C)(C)C(=O)N2C (stereo not drawn)
25: Cc1ccc(-c2cc(C(=O)NCCCn3ccnc3)c3ccccc3n2)s1
Assay by compound	21	22	23	24	25
GIV-Gai inh	97	104	100	101	105
Sa growth 42C	/	101	108	88	/
Sa growth 42C second temp	/	99	85	74	/
HCMV NEC inh	-30	-3	/	-19	-81

26: O=S(=O)(Nc1ccc(Cl)cc1)c1cccc(S(=O)(=O)c2ccc(Cl)c(Cl)c2)c1
27: CC(=O)Nc1ccc2nc(NC(=O)CS(=O)(=O)c3ccc(C)cc3)sc2c1
28: CCOC(=O)C1=C(CSc2nnnn2-c2ccccc2)NC(=O)NC1C (stereo not drawn)
29: COc1cccc(N2CC(NC(=O)c3ccc4c(c3)OCO4)CC2=O)c1 (stereo not drawn)
30: CCOc1ccc(-c2nnc(SCC(N)=O)o2)cc1
Assay by compound	26	27	28	29	30
GIV-Gai inh	104	105	/	96	100
Sa growth 42C	112	114	76	98	/
Sa growth 42C second temp	98	54	76	91	/
HCMV NEC inh	-14	/	-26	/	-11

31: O=C(C1=C(O)C(=O)N(CCCn2ccnc2)C1c1cccnc1)c1cc2ccccc2o1 (stereo not drawn)
32: CN(C(=O)CSc1nnc(Cc2cccs2)n1CCc1ccccc1)c1ccccc1
33: Cc1cccc(OCC(=O)Nc2cccc(-c3nc4ccccc4s3)c2)c1
34: CCCOC(=O)CSc1nc2c(c(-c3ccc(O)cc3)c1C#N)CCCC2
35: Cc1ccccc1CSCc1ccc(C(=O)NC2CCCC2)o1
Assay by compound	31	32	33	34	35
GIV-Gai inh	102	/	110	110	108
Sa growth 42C	/	99	111	/	124
Sa growth 42C second temp	/	88	94	/	93
HCMV NEC inh	-10	-32	-2	16	1

36: Cc1cccn2c(=O)c3cc(C(=O)NC(C)C)n(C)c3nc12
37: c1ccc2nc3c(nc2c1)sc1nc2ccccc2n13
38: FC(F)(F)c1cccc(OCc2nnc3n2CCCCC3)c1
39: Cc1ccc(Nc2c(-c3c[nH]c4ccccc34)nc3c[n+](CC(N)=O)ccn23)cc1
40: COc1ccc2c(c1)c1c(c(=O)n(-c3ccccc3C)c(=O)n1CC(=O)NCc1ccc(C)cc1)n2C
Assay by compound	36	37	38	39	40
GIV-Gai inh	105	102	/	211	106
Sa growth 42C	122	89	113	97	106
Sa growth 42C second temp	85	84	74	96	89
HCMV NEC inh	-40	-18	-12	/	/

41: Clc1cc2c(cc1Cl)Nc1cc(Cl)c(Cl)cc1N2
42: C=CCOc1ccc(C(=O)N2CCc3ccccc3C2)cc1
43: Cc1ccc(NC(=O)CCCC(=O)c2ccccc2)cc1Cl
44: CC(NC(=O)CCOc1ccccc1)c1ccccc1 (stereo not drawn)
45: Cc1ccc(C(O)c2cccnc2)o1 (stereo not drawn)
Assay by compound	41	42	43	44	45
GIV-Gai inh	96	108	99	98	99
Sa growth 42C	93	95	89	108	113
Sa growth 42C second temp	49	92	97	90	102
HCMV NEC inh	-23	2	/	-4	/

From entry 39 as far as 42, copied from above:
39: Cc1ccc(Nc2c(-c3c[nH]c4ccccc34)nc3c[n+](CC(N)=O)ccn23)cc1
40: COc1ccc2c(c1)c1c(c(=O)n(-c3ccccc3C)c(=O)n1CC(=O)NCc1ccc(C)cc1)n2C
41: Clc1cc2c(cc1Cl)Nc1cc(Cl)c(Cl)cc1N2
42: C=CCOc1ccc(C(=O)N2CCc3ccccc3C2)cc1
Assay by compound	39	40	41	42
GIV-Gai inh	211	106	96	108
Sa growth 42C	97	106	93	95
Sa growth 42C second temp	96	89	49	92
HCMV NEC inh	/	/	-23	2

(cont.)
46: CN1C(=O)C(C)(C)c2cc(S(=O)(=O)N(C)CC(=O)NCc3cccs3)ccc21
47: CC1CCN(C(=O)COC(=O)c2ccccc2O)CC1
48: CC(C)C(=O)Nc1ncc(Cc2ccccc2Cl)s1
49: O=C(CCC(=O)N1CCN(S(=O)(=O)c2ccccc2)CC1)Nc1ccc2c(c1)OCCO2
50: O=S(=O)(NC1CCCCC1Oc1ccccc1)c1ccccc1 (stereo not drawn)
Assay by compound	46	47	48	49	50
GIV-Gai inh	109	/	/	/	/
Sa growth 42C	84	94	93	103	109
Sa growth 42C second temp	99	90	95	86	87
HCMV NEC inh	1	-8	-12	-16	-20

51: c1ccc2c(OCCCCCn3ccnc3)cccc2c1
52: Nc1cccc(Cl)c1Oc1ccc(S(=O)(=O)N2CCOCC2)cc1
53: Cc1cccc(NC(=O)CN2c3cccc4cccc(c34)S2(=O)=O)c1
54: Cc1onc2c(=O)n(CC(=O)N3CCN(c4ccccn4)CC3)nc(-c3ccc(Cl)cc3)c12
55: Cc1cc(=O)[nH]c(-c2ccc(C(F)(F)F)cc2)n1
Assay by compound	51	52	53	54	55
GIV-Gai inh	/	104	103	99	108
Sa growth 42C	-0.5*	83	106	/	98
Sa growth 42C second temp	-0.4*	88	95	/	88
HCMV NEC inh	-29	/	/	-26	-24

56: CC(O)C12CC3CC(CC(C3)C1)C2 (stereo not drawn)
57: CC1CC(=O)N(CC(=O)N2CCc3ccccc32)c2cc(S(=O)(=O)N3CCCCC3)ccc2S1 (stereo not drawn)
58: Cc1ccc(NC(=O)C2CCN(S(=O)(=O)c3ccc4c(c3)CCCC(=O)N4)CC2)cc1N(C)C
59: O=c1cc(CSc2nnc(COc3ccccc3)o2)c2ccccc2[nH]1
60: CN(C)S(=O)(=O)c1cccc(CN2CCCc3ccccc32)c1
Assay by compound	56	57	58	59	60
GIV-Gai inh	/	103	117&109	108	/
Sa growth 42C	87	/	93	112	117
Sa growth 42C second temp	89	/	90	101	91
HCMV NEC inh	-12	-6	-4	-4	-28

61: O=C(O)C(Br)(Cc1ccccc1)C(=O)O
62: CCOC(=O)N1CCN(C(=O)c2ccc(/C=C3\Oc4ccccc4NC3=O)cc2)CC1
63: CCCCN(C)C(=O)c1ccc2c(c1)NC(=O)C(CC(C)C)N2 (stereo not drawn)
64: C=CCNc1nc(C(=O)OCc2nnc(-c3ccc(Br)cc3)o2)cs1
65: CN(C1CCCCC1)S(=O)(=O)c1ccc(SCC(=O)NC2CC2)nc1
Assay by compound	61	62	63	64	65
GIV-Gai inh	/	100	100	/	/
Sa growth 42C	116	96	111	89	94
Sa growth 42C second temp	86	89	86	89	72
HCMV NEC inh	-27	-72	/	-10	-2

66: Cc1ccc2c(c1)c1c(c(=O)n(-c3ccccc3C)c(=O)n1CC(=O)c1ccc(Cl)cc1)n2C
67: CCc1ccc(-c2nc(CSCC(=O)N3CCN(c4ccc(F)cc4)CC3)c(C)o2)cc1
68: Cc1cc(C)c2ccc(=O)cc-2o1
69: COc1cc(OC)c(NS(=O)(=O)c2ccc3c(c2)NC(=O)CCS3)cc1Cl
70: CCC(C)C(=O)Nc1cccc(C(=O)O)c1 (stereo not drawn)
Assay by compound	66	67	68	69	70
GIV-Gai inh	112	104	139	109	95
Sa growth 42C	118	97	104	101	103
Sa growth 42C second temp	91	78	74	99	98
HCMV NEC inh	/	-14	-8	/	-37

71: CSc1nnc(NC(=O)Cc2ccccc2)s1
72: Cc1ccc(C(=O)N2CCc3cc(CNC(=O)CSc4ccccc4)ccc32)cc1
73: O=C(CN1CCc2ccccc2C1)N1N=C(c2ccc(Cl)cc2)CC1c1ccco1 (stereo not drawn)
74: O=C(/C=C/c1cccc(Br)c1)N1CCN(c2ccccc2O)CC1
75: COc1ccc(NC(=O)Cn2nnc(C(=O)NCc3ccc4c(c3)OCO4)c2N)cc1
Assay by compound	71	72	73	74	75
GIV-Gai inh	97	103	/	/	105
Sa growth 42C	82	65	103	98	105
Sa growth 42C second temp	73	35	99	97	78
HCMV NEC inh	-19	/	4	12	-17

76: Cc1nn(CC(=O)N2CCCC2)c(C)c1NC(=O)c1cnn2c1NC(c1ccco1)CC2C(F)(F)F (stereo not drawn)
77: CC(C)c1ncc2c(n1)-c1cc(Cl)ccc1SC2
78: Cc1ccc(C2C=C(C34CC5CC(CC(C5)C3)C4)NC(=S)N2)cc1 (stereo not drawn)
79: COc1ccc(-n2ccnc2SCC(=O)Nc2ccc(F)cc2F)cc1
80: COc1ccc2c(c1)CCC(C)N2C(=O)Nc1ccc(OC)c(OC)c1 (stereo not drawn)
Assay by compound	76	77	78	79	80
GIV-Gai inh	105	106	103	105	99
Sa growth 42C	97	75	80	99	106
Sa growth 42C second temp	103	90	62	103	102
HCMV NEC inh	16	30	/	/	7

81: O=C1CC(c2ccc3c(c2)OCO3)CC2=C1C(c1ccc(C(F)(F)F)cc1)Nc1ccccc1N2 (stereo not drawn)
82: CN(C(=O)CC1(CC(=O)O)CCCC1)C1CCCCC1
83: Cc1onc(-c2ccccc2)c1C(=O)Oc1cccnc1
84: CCOc1ccc(NC(=O)C2CCC(CNC(=O)c3ccc(=O)[nH]c3)CC2)cc1 (stereo not drawn)
85: CN(CC(=O)NCc1ccccc1)S(=O)(=O)c1ccc2nc(-c3ccccc3)[nH]c2c1
Assay by compound	81	82	83	84	85
GIV-Gai inh	95	/	100	/	101
Sa growth 42C	/	126	95	124	105
Sa growth 42C second temp	/	84	84	87	74
HCMV NEC inh	-26	-35	/	-1	/

Sorted by SMILES length (high to low): some entries from above.
80: COc1ccc2c(c1)CCC(C)N2C(=O)Nc1ccc(OC)c(OC)c1 (stereo not drawn)
82: CN(C(=O)CC1(CC(=O)O)CCCC1)C1CCCCC1
83: Cc1onc(-c2ccccc2)c1C(=O)Oc1cccnc1
Assay by compound	80	82	83
GIV-Gai inh	99	/	100
Sa growth 42C	106	126	95
Sa growth 42C second temp	102	84	84
HCMV NEC inh	7	-35	/

Screening results from PubChem BioAssay.
